# BJeLR viability: MLPCN primary cell-based screen for lethality selective to Ras in HRASV12 cells; BJeLR (HRASV12) viability, CellTiter-Glo ATP luminescence, 48 h; reference of the scale not given here; 300,000 compounds, 0.17% hits; inhibition, % (test concentration not listed); AID 1554, 2009;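 active means replicate mean above 50%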;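 further: 50 nL library stock added to about 25 µL; numbers are from one replicate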
# Mtb hypoxia inh: PubChem AID 1159583 | M. tuberculosis hypoxia-regulated fluorescent reporter, fluorescence | fluorescence inhibition, % (no concentration beside the values) | 300,000 compounds, 0.1% hits;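 active means 35 to 45% if threefold the growth effect, above 45% if 1.5-fold the growth effect; inactive means the rest, general growth blockers included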;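 further: wells of about 50 µL received 100 nL stock; 0% = vehicle wells and 100% = reference inhibitor wells; whole bacteria with a GFP reporter of the hypoxia response; strong numbers were not always called active; many hits fall short of the cut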
# PrP 5UTR inh: inhibition of PrP 5' UTR reporter expression. 340,000 compounds, 0.35% hits. AID 488862, 2010. cell-based PrP 5' UTR mRNA reporter, plate reader. inhibition, % (concentration not given with the values);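 active means every replicate at 50% or more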;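 further: 0 = median of the neutral control wells; tested in H4 reporter cells; numbers are from one replicate; inactives centre near -14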
# ugtP null kill: growth inhibition of ugtP-null S. aureus, primary screen, RN4220 ugtP deletion, OD600 | 16 h; some inactives read as strong as hits | growth inhibition, % (test concentration not listed) | 330,000 compounds, 0.54% hits | AID 1259309, 2017;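 active means z-score under -3 and OD600 up to 0.15 on both plates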;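 further: plate controls were untreated wells for no effect and antibiotic for full effect; wells of about 80 µL received 100 nL stock; the first replicate is given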
# Autofluor counter: flagged as autofluorescent in microsphere protease counterscreen. AID 624483. fluorescence intensity (no concentration beside the values). 360,000 compounds, 3.1% hits. compound autofluorescence counterscreen, microsphere flow cytometry; stronger effect = higher value;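 active means at least 3 SD above the mean of all compounds, about 16000 in these data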;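 further: 100 nL of 1 mM stock went into each well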
# Sa RN4220 lethal: growth inhibition of S. aureus RN4220, primary screen, OD600; 330,000 compounds, 0.33% hits; 16 h; inhibition, % (test concentration not listed);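 active means z-score of -3 or lower and OD600 up to 0.18 on both plates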;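 further: plate controls were untreated cells for no effect and reference antibiotic for full effect; stock transfer was 100 nL into about 80 µL; one replicate is shown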
# Mtb hypoxia inh growth: recorded beside Mtb hypoxia inh, whose call it bears; growth inhibition, %; measured here: M. tuberculosis growth (absorbance);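 0% = vehicle and 100% = reference antibiotic; read after six days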
# Active calls of the source: *; / = not tested or not shown; & = joins results of further samples. These rows are one share of the data; rates above refer to the full screens.
SMILES,BJeLR viability,Mtb hypoxia inh,Mtb hypoxia inh growth,PrP 5UTR inh,ugtP null kill,Autofluor counter,Sa RN4220 lethal
COc1c(O)cc2c(c1O)[C@@H]1O[C@H](CO)[C@@H](O)[C@H](O)[C@H]1OC2=O,1.1,-9.5,11.3,-13.6,1.2,4212,2.2
CCOC(=O)Nc1ccc(NCc2ccc(F)cc2)nc1N,/,-3.2,-6.6,-37.5,1.1,6260,4.0
CCN(CC)CCOC(=O)C(c1ccccc1)c1ccccc1,-7.5,0.6,0.8,-8.6,1.8,5294,3.6
CCN(CC)S(=O)(=O)c1ccc(C(=O)O)cc1,5.9,4.9,-1.0,80.0*,0.8,5715,1.9
C/C=C(/C)C(=O)O[C@@H]1c2cc3c(c4c2[C@@]2(CO4)C(=O)C(OC)=C(OC)C=C2C[C@@H](C)[C@H]1C)OCO3,1.9,/,/,-13.1,/,3382,/
COc1ccc(Sc2ccc(NC(=O)c3ccccc3Cl)cc2C#N)cc1,-0.7,/,/,2.3,-6.1,6132,-20.6
CC(C)(C(=O)c1cccnc1)c1cccnc1,-22.3,/,/,-9.4,4.9,5184,8.3
COc1ccccc1OC(=O)Oc1ccccc1OC,/,20.1,8.4,-33.3,12.3,3754,4.7
O=C1CCc2cc(OCCCCc3nnnn3C3CCCCC3)ccc2N1,0.8,/,/,13.8,/,4616,/
CCCc1cc(C(N)=S)ccn1,2.8,/,/,-52.2&-14.9,-2.3,5748,2.8
CC=C(C)C(=O)OC(C)(C)C1Cc2c(ccc3ccc(=O)oc23)O1 (centres undefined),/,17.5,7.7,/,1.7,/,8.0
CC1(C)Oc2ccc(C#N)cc2[C@@H](N2CCCC2=O)[C@@H]1O,-19.8,/,/,-11.9,/,5874,/

# Reformatted tab-delimited: three of the compounds above
compound	BJeLR viability	Mtb hypoxia inh	Mtb hypoxia inh growth	PrP 5UTR inh	ugtP null kill	Autofluor counter	Sa RN4220 lethal
COc1c(O)cc2c(c1O)[C@@H]1O[C@H](CO)[C@@H](O)[C@H](O)[C@H]1OC2=O	1.1	-9.5	11.3	-13.6	1.2	4212	2.2
CCOC(=O)Nc1ccc(NCc2ccc(F)cc2)nc1N	/	-3.2	-6.6	-37.5	1.1	6260	4.0
CCN(CC)CCOC(=O)C(c1ccccc1)c1ccccc1	-7.5	0.6	0.8	-8.6	1.8	5294	3.6

# The list goes on:
SMILES,BJeLR viability,Mtb hypoxia inh,Mtb hypoxia inh growth,PrP 5UTR inh,ugtP null kill,Autofluor counter,Sa RN4220 lethal
CCOC(=O)Nc1ccc2c(c1)N(C(=O)CCN1CCOCC1)c1ccccc1S2,5.5&2.6,3.3,0.8,-5.9&15.4,0.5,3237&5016,3.0
CN=C(N)NC(=O)Nc1c(C)cccc1C,1.6,-2.9,-7.4,-13.1,3.9,6048,3.0
CCCC(=O)O[C@]1(C(=O)CCl)C(C)CC2C3CCC4=CC(=O)C=C[C@]4(C)[C@@]3(F)C(=O)C[C@@]21C (some centres undefined),/,-12.7,2.6,/,-7.1,/,2.8
COc1cc2c(c(OC)c1OC)-c1c(cc(OC)c(OC)c1OC)C[C@H](C)[C@H](C)C2,-9.3,/,/,-5.0,/,3604,/
CC1CCc2c(N3CCC(O)CC3)c(F)cc3c(=O)c(C(=O)O)cn1c23 (centres undefined),/,/,/,-14.9,98.6*,4300,99.2*
COc1cc(C)nc(-n2nc(C)cc2OC)n1,2.7,0.4,-2.0,4.0,-0.2,4086,5.6
Nc1ncnc(Nc2ccccc2)n1,-1.8,-1.9,-0.6,-21.5,0.6,6145,6.5
O=C(c1ccccc1)c1ccc2n1CCC2C(=O)O (centres undefined),-0.7,8.9,5.4,-15.5,-0.9,4524,9.1
CCC(Cc1c(I)cc(I)c(N)c1I)C(=O)O (centres undefined),/,3.3,3.5,-13.3,7.7,5751,7.8
CC(=O)OCC(=O)[C@@]1(O)CCC2C3CCC4=CC(=O)C=C[C@]4(C)[C@@]3(F)C(O)C[C@@]21C (some centres undefined),/,6.0,2.2,/,4.1,/,7.9
COc1cc(C(=O)NCCCCCC(=O)O)cc(OC)c1OC,6.1,/,/,-11.1&-17.1,/,5602,/
Cc1c(C(=O)O)c(O)cc2c1C(=O)c1c(O)c(C3OC(CO)C(O)C(O)C3O)c(O)c(O)c1C2=O (centres undefined),/,21.0,-13.1,/,2.6,/,2.1

# Copied from the list.
# `CN=C(N)NC(=O)Nc1c(C)cccc1C` in BJeLR viability = 1.6
# `CC(C)(C(=O)c1cccnc1)c1cccnc1` in PrP 5UTR inh = -9.4
# `COc1ccccc1OC(=O)Oc1ccccc1OC` in Sa RN4220 lethal = 4.7
# `CC(=O)OCC(=O)[C@@]1(O)CCC2C3CCC4=CC(=O)C=C[C@]4(C)[C@@]3(F)C(O)C[C@@]21C` (some centres undefined) in ugtP null kill = 4.1
# `CCOC(=O)Nc1ccc2c(c1)N(C(=O)CCN1CCOCC1)c1ccccc1S2` in Autofluor counter = 3237&5016
# `CCN(CC)CCOC(=O)C(c1ccccc1)c1ccccc1` in Autofluor counter = 5294

# (more compounds)
SMILES,BJeLR viability,Mtb hypoxia inh,Mtb hypoxia inh growth,PrP 5UTR inh,ugtP null kill,Autofluor counter,Sa RN4220 lethal
Cc1ccsc1/C=C/C1=NCCCN1C,-12.8,/,/,-23.7&-13.5&-2.1,/,5917&7006&5976,/
Oc1cc2c(cc1O)C1c3ccc(O)c(O)c3OCC1(O)C2 (centres undefined),/,/,/,-4.6,-19.3,3952,27.8
CC[C@]12CCCN3CCc4c(n(c5ccccc45)[C@@](O)(C(=O)OC)C1)[C@@H]32,/,/,/,-10.2,7.1,3876,1.6
CCCCOC(=O)c1ccc(N)cc1,-7.2,4.0,2.6,-21.7,5.4,5620,7.7
O=C1c2ccccc2C(=O)c2c(O)c(O)cc(O)c21,/,8.5,-9.9,1.0,83.2,4206,42.7
CCCC(=O)O[C@]1(C(=O)COC(C)=O)CCC2C3CC(F)C4=CC(=O)C=C[C@]4(C)[C@@]3(F)C(O)C[C@@]21C (some centres undefined),/,-10.5,8.2,/,-7.7,/,1.4
CCOc1ccc(NC(=S)N2CCC(C(O)(c3ccccc3)c3ccccc3)CC2)cc1,11.9,3.8,9.6,-21.2,-8.3,2029,-0.2
O=C(O)CCCCCCCC(=O)O,-15.5,15.5,10.0,-13.5,-0.5,6673,1.4
CC=CC=NNC(=O)c1ccncc1,/,/,/,/,-1.9,/,6.5
O=C(NCCN1CCOCC1)c1ccc(Cl)cc1,4.5,-6.2,-9.4,-20.0&-5.4,-4.4,5679,0.9
CN1CCN(CCCN2c3ccccc3Sc3ccc(S(=O)(=O)N(C)C)cc32)CC1,/,9.7,4.9,3.8,6.4,5312,1.2
CN1CCC(=C2c3ccccc3CC(=O)c3sccc32)CC1,1.4,7.3&-4.7,-1.5&-0.2,-0.2&-19.1&11.9,4.0&-0.6,5451&5983&2813,5.6&4.0

# In the list so far, these contain a cyano group.
SMILES,BJeLR viability,Mtb hypoxia inh,Mtb hypoxia inh growth,PrP 5UTR inh,ugtP null kill,Autofluor counter,Sa RN4220 lethal
COc1ccc(Sc2ccc(NC(=O)c3ccccc3Cl)cc2C#N)cc1,-0.7,/,/,2.3,-6.1,6132,-20.6
CC1(C)Oc2ccc(C#N)cc2[C@@H](N2CCCC2=O)[C@@H]1O,-19.8,/,/,-11.9,/,5874,/

# Additional structures:
SMILES,BJeLR viability,Mtb hypoxia inh,Mtb hypoxia inh growth,PrP 5UTR inh,ugtP null kill,Autofluor counter,Sa RN4220 lethal
CN1CCN(c2c(F)cc3c(=O)c(C(=O)O)cn4c3c2SCC4)CC1,-0.6&-1.1,/,/,-15.7,99.2*,4287,98.8*
Nc1cc(=O)[nH]c(N)n1,/,2.5,13.3,-8.5,7.6,5691,4.8
CCCN(CCC)C(=O)C(CCC(=O)O)NC(=O)c1ccccc1 (centres undefined),-3.1,-2.9&-0.1,-1.1&3.1,-20.1,-1.7&-0.8,5518,3.4&4.8
CN(C)CCOC(=O)C(c1ccccc1)C1(O)CCCC1 (centres undefined),-7.8,6.9,-2.9,-6.3,2.8,5177,7.5
O=C1c2c(O)cccc2C(C2OC(CO)[C@@H](O)[C@H](O)[C@H]2O)c2cc(CO)cc(O)c21 (some centres undefined),/,4.5,2.4,-16.7,-4.9,3899,-6.9
CC1CC2C3CCC4=CC(=O)C=C[C@]4(C)[C@@]3(Cl)C(O)C[C@]2(C)[C@@]1(OC(=O)c1ccco1)C(=O)CCl (some centres undefined),/,-7.6,4.5,/,-23.7,/,-0.5
C[C@]12CCC3C(CCC4=CC(=O)CC[C@@]43C)C1CCC2C(=O)CO (some centres undefined),/,-6.7,11.4,/,9.6,/,3.2
COc1cc(NC(=O)c2cc(C3CC3)on2)c(OC)cc1Cl,0.4,5.3,8.5,5.5,5.2,4516,-10.7
COc1ccc(S(=O)(=O)Nc2nnc(CC(C)C)s2)cc1,2.5,0.2,1.9,-43.0,-10.3,9264,5.6
COc1cc2c(c(OC)c1OC)-c1c(cc3c(c1OC)OCO3)C(OC(C)=O)C(C)C(C)C2 (centres undefined),/,4.2,7.2,/,11.2,/,8.3
CCC12CCCN3CCc4c(n(c5ccccc45)C(O)(C(=O)OC)C1)C32 (centres undefined),-8.0,/,/,-16.7,-10.3,4880,1.0
OCC(O)CN1CCN(c2ccccc2)CC1 (centres undefined),-4.2,6.0,-3.4,-11.2,-1.3,7372,5.4
